Assay outcomes from PubChem.
rRNA inh HTS: inhibitors of bacterial rRNA selective over humanized ribosomes; E. coli WT GFP vs humanized-ribosome RFP mutants, fluorescence, 24 h; stronger effect = lower value; DMSO median 0, no signal -100; AID 720706; GFP signal change (wild-type ribosome), % (no concentration beside the values); 1.6% of 350,000 active;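 active = significant combined selectivity score with lowered wild-type GFP, culture density cut under 30%, mutant RFP and density less affected; inactive = any of these conditions unmet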; note: one replicate is shown; some compounds called inactive have numbers as strong as hits
Vif TR-FRET: inhibitors of Vif binding to APOBEC3G peptide, primary screen, biochemical, TR-FRET, GST-Vif 1-94, biotin-A3G peptide, dose response retest (AID 1117319) | TR-FRET GST-Vif / biotin-A3G peptide binding; higher % means a stronger effect; test concentration not given here; strong numbers were not always called active | one-dose inhibition, %; IC50 in µM for titrated hits | 0.57% of 260,000 active;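 active = above the screen mean plus three standard deviations and confirmed in dose response; inconclusive = results disagree or hit not tested in dose response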;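 note: Vif residues 1-94 fused to GST binding biotinylated APOBEC3G peptide 110-148; 0% = full assay without inhibitor and 100% = GST in place of GST-Vif; retest series ran down from 100 µM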
A1 inh: inhibitors of the anti-apoptotic protein A1, read as caspase activation; MEF A1-2A-BIM cells, Caspase-Glo 3/7 luminescence, 3 h; percent of clofoctol response, vehicle zero; 0.066% of 330,000 active; caspase activation, % (test concentration not listed);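 active = over half of replicate activation scores above 10%, or exactly half above 10 with the replicate mean above 10; inconclusive = replicate mean below 10 yet half the replicates above 10; inactive = over half of replicates below 10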;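 note: wells of about 30 µL received 50 nL stock; many hits fall short of the cut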
T cruzi repl: T. cruzi replication inhibition. inhibition, % (test concentration not listed). T. cruzi beta-gal in NIH3T3, luminescence, 90 h. AID 1885. 1.4% of 300,000 active;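 active = mean inhibition across valid replicates above about 55%, limit read from the data; inconclusive = mean below that limit but half or more replicates reach it; inactive = mean below it, under half of replicates reach it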;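 note: signal also drops with host cell toxicity which is not excluded here; 0% = plate median of DMSO wells and 100% = zero luminescence signal; higher percent means less beta-gal luminescence so fewer parasites; stock transfer was 50 nL into about 50 µL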
Calb FLC: affects C. albicans growth with fluconazole | C. albicans CaCi-2 (fluconazole-resistant clinical isolate) + fluconazole, Alamar Blue growth, 48 h | growth inhibition, % (test concentration not listed) | 0.57% of 300,000 active;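 active = most replicates above 75%; inconclusive = exactly half above 75%; inactive = most below 75%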;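 note: all wells also contain fluconazole at 8 µg/ml as a sub-toxic cotreatment; 0% = median of DMSO wells and 100% = median of geldanamycin control wells; wells of about 8 µL received 7.5 nL stock; the first replicate is given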
RanGTP-Imp inh: inhibitors of RanGTP-importin-beta interaction, primary screen, biochemical, FRET, CFP-Ran, YFP-importin-beta, homogeneous. AID 2216. inhibition, % (test concentration not listed). 1.1% of 300,000 active. cell-free CFP-Ran/YFP-importin-beta FRET ratio;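 active = most replicates above 15%; inconclusive = exactly half above 15%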;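 note: 0% = DMSO wells and 100% = Ran loaded with GDP instead of GTP; wells of about 40 µL received 100 nL stock; the first replicate is given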
Beta cell apopt: blocks beta cell apoptosis | INS-1E cytokine-induced death, ATP luminescence, 48 h; percent of positive-control rescue, neutral wells zero | protection from apoptosis, % (no concentration beside the values) | 0.8% of 300,000 active;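 active = all replicates at 75% or more, or half of them and the mean; inconclusive = half reach 75% but not the mean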;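 note: 0% = cytokine-treated negative control wells and 100% = positive control rescue; higher means more ATP so stronger rescue from cytokine killing; wells of about 40 µL received 100 nL stock; the first replicate is given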
MLL AF4-AF9 inh: inhibitors of human MLL-AF4/AF9 interaction | inhibition, % at 10 µM | AID 651704 | AlphaScreen, biotin-AF4 peptide binding to FLAG-AF9 | 0.47% of 350,000 active;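 active = every replicate reaching a set inhibition limit, whatever the replicate mean, cut at about 25% in these data; inconclusive = mean inhibition reaches that limit but some replicates miss it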;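 note: 0% = plate neutral control median and 100% = total signal loss; the record names both 10 and 1 µM as test concentration; the first replicate is given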
Target sequence (P42568 whole entry, looked up): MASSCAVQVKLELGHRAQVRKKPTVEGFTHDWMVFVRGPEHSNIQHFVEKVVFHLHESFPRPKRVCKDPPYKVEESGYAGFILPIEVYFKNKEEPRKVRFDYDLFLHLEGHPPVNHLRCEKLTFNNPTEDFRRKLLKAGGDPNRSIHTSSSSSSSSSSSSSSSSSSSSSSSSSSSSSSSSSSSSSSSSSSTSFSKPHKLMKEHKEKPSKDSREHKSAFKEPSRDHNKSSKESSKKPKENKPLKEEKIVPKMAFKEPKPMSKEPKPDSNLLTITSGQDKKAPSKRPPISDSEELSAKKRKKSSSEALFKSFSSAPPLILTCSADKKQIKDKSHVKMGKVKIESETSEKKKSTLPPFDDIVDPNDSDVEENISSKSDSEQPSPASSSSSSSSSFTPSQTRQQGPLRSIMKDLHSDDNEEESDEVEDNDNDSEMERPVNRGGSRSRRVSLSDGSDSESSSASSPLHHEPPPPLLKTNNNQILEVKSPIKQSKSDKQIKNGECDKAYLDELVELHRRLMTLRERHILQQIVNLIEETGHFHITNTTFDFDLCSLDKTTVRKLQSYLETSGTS
rRNA inh HTS OD600: also measured in rRNA inh HTS; calls as there; OD600 change, %; measured here: OD600 growth;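 optical density of the mix in the first replicate; 0 = DMSO median and -100 = no signal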
rRNA inh HTS RFP: second read-out of rRNA inh HTS, no call of its own (marks repeat the call); RFP signal change, %; measured here: RFP humanized mutant strains;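 first replicate; 0 = DMSO median and -100 = no signal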
* = called active by the depositor. A portion of the library; rates above refer to the full screens.

Results for CC(=O)c1c(C)[nH]c(C(=O)OCC(=O)Nc2cc(C(F)(F)F)ccc2N2CCOCC2)c1C ?
Vif TR-FRET: -3%; A1 inh: -0.7; T cruzi repl: 0; Calb FLC: -11; RanGTP-Imp inh: 2.5; Beta cell apopt: 7

How did COc1cc(OC)c(NC(=O)CC(C)=O)cc1Cl do in these assays?
Vif TR-FRET: 8%; A1 inh: 0.8; T cruzi repl: -8; Calb FLC: 0; RanGTP-Imp inh: 2.3; Beta cell apopt: -4

How did c1cc(CNc2ccc3c(c2)OCO3)ccn1 do in these assays?
Vif TR-FRET: 16%; A1 inh: 0.6; T cruzi repl: 4; Calb FLC: 4; RanGTP-Imp inh: 4.8; Beta cell apopt: -4

What do the screens show for `CC(=O)c1oc2ccccc2c1NC(=O)COC(=O)c1ccc(-n2nc(C)cc2C)cc1`?
A1 inh: -0.7; T cruzi repl: -5; Calb FLC: 0; RanGTP-Imp inh: 5.6; Beta cell apopt: 1

How did CCCOc1ccc(C(=O)OCC(=O)c2c(N)n(C)c(=O)n(C)c2=O)cc1OC do in these assays?
rRNA inh HTS: 3; Vif TR-FRET: -4%; A1 inh: -0.2; T cruzi repl: 2; Calb FLC: -14; RanGTP-Imp inh: 2.5; Beta cell apopt: -3; MLL AF4-AF9 inh: -0.9; rRNA inh HTS OD600: 0; rRNA inh HTS RFP: 3.1

Results for CCn1cc(Cl)c(C(=O)Nc2cccc(C(F)(F)F)c2)n1 ?
rRNA inh HTS: -23*; Vif TR-FRET: 0%; A1 inh: 0.0; T cruzi repl: -13; Calb FLC: 15; RanGTP-Imp inh: 3.2; Beta cell apopt: 6; MLL AF4-AF9 inh: 0.0; rRNA inh HTS OD600: 7.7*; rRNA inh HTS RFP: -7.9*

Results for CCOC(=O)c1ccc(Oc2cn[nH]c2-c2ccc(O)cc2O)cc1 ?
rRNA inh HTS: -52; Vif TR-FRET: 2%; A1 inh: -1.0; T cruzi repl: -2; Calb FLC: 0; RanGTP-Imp inh: 3.4; Beta cell apopt: 8; MLL AF4-AF9 inh: 5.5; rRNA inh HTS OD600: -78; rRNA inh HTS RFP: -31

How did CCOc1ccc(S(=O)(=O)Nc2ccccc2C(=O)NCC2CCCO2)cc1 (stereo unspecified) do in these assays?
Vif TR-FRET: inconclusive; A1 inh: 0.0; T cruzi repl: -13; Calb FLC: 16; RanGTP-Imp inh: -11; Beta cell apopt: -1

What do the screens show for `Cc1cc(NC(=O)COC(=O)COc2ccc(C(=O)c3ccccc3)cc2)no1`?
Vif TR-FRET: -6%; A1 inh: -1.6; T cruzi repl: -21; Calb FLC: -13; RanGTP-Imp inh: 0.6

How did Cc1noc(C)c1S(=O)(=O)N(CC(=O)N1CCCC1)c1ccc(C(C)C)cc1 do in these assays?
rRNA inh HTS: -11; Vif TR-FRET: 5%; A1 inh: -0.6; T cruzi repl: 15; Calb FLC: -3; RanGTP-Imp inh: 3.0; MLL AF4-AF9 inh: 5.9; rRNA inh HTS OD600: -18; rRNA inh HTS RFP: -3.3

Results for Cc1ccc(NC2c3ccccc3C(=O)N2CCN2CCOCC2)cc1 (stereo unspecified) ?
rRNA inh HTS: 2; Vif TR-FRET: 1%; A1 inh: -0.3; T cruzi repl: -22; Calb FLC: -1; RanGTP-Imp inh: 4.8; Beta cell apopt: -2; MLL AF4-AF9 inh: -7.9; rRNA inh HTS OD600: 1; rRNA inh HTS RFP: 3.3

What do the screens show for `O=C(Oc1ccc2c(c1)C(=O)c1ccccc1CO2)c1ccccc1`?
Vif TR-FRET: 2%; A1 inh: 0.5; T cruzi repl: -6; Calb FLC: 4; RanGTP-Imp inh: 0.3; Beta cell apopt: -4

What do the screens show for `O=C(CN1CCN(c2ccc(F)cc2)CC1)N1CCC(Cc2ccccc2)CC1`?
rRNA inh HTS: -30; Vif TR-FRET: 2%; A1 inh: 0.8; T cruzi repl: 27; Calb FLC: -5; RanGTP-Imp inh: -2.0; Beta cell apopt: -1; MLL AF4-AF9 inh: 8.4; rRNA inh HTS OD600: -26; rRNA inh HTS RFP: -0.7

What do the screens show for `O=C(/C=C/c1ccco1)NC(=S)Nc1ccccc1N1CCCC1`?
A1 inh: 0.9; T cruzi repl: 1; Calb FLC: 28; RanGTP-Imp inh: -12; Beta cell apopt: -2

How did Cc1ccc(C(=O)NCc2ccccn2)cc1NC1=NC2CS(=O)(=O)CC2S1 (stereo unspecified) do in these assays?
rRNA inh HTS: 10; A1 inh: -0.3; T cruzi repl: -12; Calb FLC: -5; RanGTP-Imp inh: -1.4; Beta cell apopt: -3; MLL AF4-AF9 inh: -5.1; rRNA inh HTS OD600: 15; rRNA inh HTS RFP: -2.9

For reference, part of the list above.
What do the screens show for `O=C(CN1CCN(c2ccc(F)cc2)CC1)N1CCC(Cc2ccccc2)CC1`?
rRNA inh HTS: -30; Vif TR-FRET: 2%; A1 inh: 0.8; T cruzi repl: 27; Calb FLC: -5; RanGTP-Imp inh: -2.0; Beta cell apopt: -1; MLL AF4-AF9 inh: 8.4; rRNA inh HTS OD600: -26; rRNA inh HTS RFP: -0.7

What do the screens show for `O=C(/C=C/c1ccco1)NC(=S)Nc1ccccc1N1CCCC1`?
A1 inh: 0.9; T cruzi repl: 1; Calb FLC: 28; RanGTP-Imp inh: -12; Beta cell apopt: -2

How did Cc1ccc(C(=O)NCc2ccccn2)cc1NC1=NC2CS(=O)(=O)CC2S1 (stereo unspecified) do in these assays?
rRNA inh HTS: 10; A1 inh: -0.3; T cruzi repl: -12; Calb FLC: -5; RanGTP-Imp inh: -1.4; Beta cell apopt: -3; MLL AF4-AF9 inh: -5.1; rRNA inh HTS OD600: 15; rRNA inh HTS RFP: -2.9

(more compounds)
Results for CCOC(=O)C1CCCN(c2nc3ccccc3nc2C(C#N)C(=O)NCc2ccccc2)C1 (stereo unspecified) ?
Vif TR-FRET: inconclusive; A1 inh: 1.3; T cruzi repl: 19; Calb FLC: -15; RanGTP-Imp inh: -14; Beta cell apopt: -7

How did O=C(Cn1ncc2c(=O)oc3ccccc3c21)NCCc1ccsc1 do in these assays?
rRNA inh HTS: 5; Vif TR-FRET: -3%; T cruzi repl: -4; Calb FLC: -1; RanGTP-Imp inh: -0.7; Beta cell apopt: -2; MLL AF4-AF9 inh: -4.1; rRNA inh HTS OD600: 4; rRNA inh HTS RFP: -4.5

How did CCOc1ccc(C(=O)NC(=S)NC2CCCC2)cc1[N+](=O)[O-] do in these assays?
rRNA inh HTS: 1; Vif TR-FRET: -1%; A1 inh: 1.1; T cruzi repl: 20; Calb FLC: -1; RanGTP-Imp inh: 4.6; Beta cell apopt: -9; MLL AF4-AF9 inh: 0.8; rRNA inh HTS OD600: -3; rRNA inh HTS RFP: 0.4

How did CCCCn1c(SCC(=O)c2ccc(OC)cc2OC)nc2cc(S(N)(=O)=O)ccc21 do in these assays?
Vif TR-FRET: 24%; A1 inh: 0.7; T cruzi repl: 26; Calb FLC: -9; RanGTP-Imp inh: -1.9; Beta cell apopt: 1

What do the screens show for `CCOC(=O)c1c(NC(=O)C2=COCCO2)sc2c1CCN(C(=O)OC)C2`?
rRNA inh HTS: -1; Vif TR-FRET: -3%; A1 inh: -0.8; T cruzi repl: 20; Calb FLC: 17; RanGTP-Imp inh: -4.5; MLL AF4-AF9 inh: 2.8; rRNA inh HTS OD600: -3; rRNA inh HTS RFP: 1.0

How did CC(C)(C)N1C(=O)c2ccc(C(=O)Nc3ccc(-c4nc5ccccc5[nH]4)cc3)cc2C1=O do in these assays?
Vif TR-FRET: -5%; A1 inh: -0.2; T cruzi repl: 1; Calb FLC: -17; RanGTP-Imp inh: -3.5; Beta cell apopt: -1

Results for O=C(NC(=S)NN1CCCCC1c1cccnc1)c1ccc(Cl)cc1Cl (stereo unspecified) ?
Vif TR-FRET: 13%; A1 inh: 0.3; T cruzi repl: 29; Calb FLC: 26; RanGTP-Imp inh: 3.2; Beta cell apopt: -6; MLL AF4-AF9 inh: 1.9

What do the screens show for `Cc1ccc(C(=O)Nc2cc3c(cc2N2CCCCC2)n(C)c(=O)n3C)cc1`?
A1 inh: -0.2; T cruzi repl: 8; Calb FLC: 0; RanGTP-Imp inh: -0.9; Beta cell apopt: -3

How did CCNC(=O)c1sc(-c2ccccc2)nc1C do in these assays?
Vif TR-FRET: 0%; A1 inh: -0.3; T cruzi repl: -11; Calb FLC: -10; RanGTP-Imp inh: -12; Beta cell apopt: -7

What do the screens show for `O=C1CC(c2ccccc2)n2nc(NC(=O)c3ccccc3)nc2N1` (stereo unspecified)?
rRNA inh HTS: -1; Vif TR-FRET: 7%; A1 inh: 0.0; T cruzi repl: -16; Calb FLC: -15; RanGTP-Imp inh: 1.7; Beta cell apopt: -5; rRNA inh HTS OD600: -4; rRNA inh HTS RFP: -1.4

How did Cc1ccc(S(=O)(=O)N[C@H](C(=O)Oc2ccc3c(C(F)(F)F)cc(=O)oc3c2)c2ccccc2)cc1 do in these assays?
Vif TR-FRET: -10%; A1 inh: 1.2; T cruzi repl: 5; Calb FLC: -1; RanGTP-Imp inh: 33*; Beta cell apopt: -1

What do the screens show for `CCc1cc2cc(OC)ccc2nc1SCC(=O)NNC(=O)c1ccco1`?
rRNA inh HTS: 11; A1 inh: -0.2; T cruzi repl: 5; Calb FLC: inconclusive; RanGTP-Imp inh: -0.4; Beta cell apopt: 4; MLL AF4-AF9 inh: -0.5; rRNA inh HTS OD600: -2; rRNA inh HTS RFP: -0.4

How did CCN(CC)CCN1C(=O)C(=O)/C(=C(/O)c2c(C)[nH]c(C(=O)OC)c2C)C1c1ccc(C)o1 (stereo unspecified) do in these assays?
rRNA inh HTS: -5; Vif TR-FRET: 12%; A1 inh: -0.2; T cruzi repl: -6; Calb FLC: 0; RanGTP-Imp inh: -1.3; Beta cell apopt: -4; MLL AF4-AF9 inh: 0.8; rRNA inh HTS OD600: 5; rRNA inh HTS RFP: -1.6

What do the screens show for `CCNC(=S)N1CCN(S(=O)(=O)c2ccccc2C(F)(F)F)CC1`?
rRNA inh HTS: 6; Vif TR-FRET: 12%; A1 inh: 0.3; T cruzi repl: -1; Calb FLC: -19; RanGTP-Imp inh: -1.2; Beta cell apopt: 1; MLL AF4-AF9 inh: -4.5; rRNA inh HTS OD600: 5; rRNA inh HTS RFP: 1.0

What do the screens show for `N/C(COc1ccc(Cl)cc1Cl)=N\O`?
rRNA inh HTS: 6; Vif TR-FRET: -5%; A1 inh: 1.5; T cruzi repl: 5; Calb FLC: -3; RanGTP-Imp inh: -0.3; Beta cell apopt: -6; MLL AF4-AF9 inh: -1.3; rRNA inh HTS OD600: 4; rRNA inh HTS RFP: 0.1
